# Source: PubChem
# HNF4A DNA FP – change in binding of human HNF4 alpha to DNA; P41235; HNF4a-FITC DNA binding, fluorescence polarization, 1 h; activity change, % at 10 µM; actives 0.3% (n = 360,000); AID 1224865; in the data active = activity change above about 30%, passing the limit was not always enough;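 also: controls were the assay level and a saturating level of protein; the project sought stronger binding though the title names inhibitors; some compounds called inactive have numbers as strong as hits; positive values seem to mean higher polarization but the record does not say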
# Target sequence (P41235 whole entry, looked up): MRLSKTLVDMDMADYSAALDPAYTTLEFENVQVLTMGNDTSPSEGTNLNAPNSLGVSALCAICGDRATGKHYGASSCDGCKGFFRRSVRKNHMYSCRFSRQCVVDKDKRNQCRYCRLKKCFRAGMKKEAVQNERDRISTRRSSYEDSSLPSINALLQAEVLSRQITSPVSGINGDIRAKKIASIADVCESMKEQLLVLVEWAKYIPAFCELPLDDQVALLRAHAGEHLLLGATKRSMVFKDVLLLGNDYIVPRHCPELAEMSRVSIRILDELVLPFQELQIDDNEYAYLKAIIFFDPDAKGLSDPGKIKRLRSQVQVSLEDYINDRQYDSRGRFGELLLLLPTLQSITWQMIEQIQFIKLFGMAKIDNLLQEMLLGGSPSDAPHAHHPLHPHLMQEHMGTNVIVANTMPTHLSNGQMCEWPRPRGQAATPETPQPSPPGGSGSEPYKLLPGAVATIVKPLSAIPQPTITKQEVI
# RanGTP-Impb inh – disruptors of Ran-importin-beta complex formation – biochemical, FRET, CFP-Ran, YFP-importin-beta, homogeneous, primary screen | actives 1.1% (n = 300,000) | cell-free CFP-Ran/YFP-importin-beta FRET ratio | inhibition, % (concentration not given with the values);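 active = most replicates above 15%; inconclusive = exactly half above 15%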;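 also: 0% = DMSO wells and 100% = Ran loaded with GDP instead of GTP; wells of about 40 µL received 100 nL stock; the first replicate is given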
# Vif TR-FRET – inhibitors of Vif binding to APOBEC3G peptide, primary screen, biochemical, TR-FRET, GST-Vif 1-94, biotin-A3G peptide, dose response retest (AID 1117319); actives 0.57% (n = 260,000); inhibition, %, or IC50 in µM where a hit was titrated; TR-FRET GST-Vif / biotin-A3G peptide binding; higher % means a stronger effect; test concentration not given here; strong numbers were not always called active;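 active = above the screen mean plus three standard deviations and confirmed in dose response; inconclusive = results disagree or hit not tested in dose response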;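 also: Vif residues 1-94 fused to GST binding biotinylated APOBEC3G peptide 110-148; 0% = full assay without inhibitor and 100% = GST in place of GST-Vif; retest series ran down from 100 µM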
# Ecoli growth – E. coli growth inhibition | Escherichia coli growth, OD600, 23 h; active compounds read low | actives 0.21% (n = 330,000) | OD600 absorbance (concentration not given with the values);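 active = OD600 absorbance below the run mean of sample wells minus 3.6 SD, in any replicate, cut at about 0.56 in these data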;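 also: stock transfer was 300 nL into about 60 µL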
# AF4-AF9 inh – MLL-AF4/AF9 protein interaction inhibition | AlphaScreen, biotin-AF4 peptide binding to FLAG-AF9 | actives 0.47% (n = 350,000) | inhibition, % at 10 µM | AID 651704;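 active = every replicate reaching a set inhibition limit, whatever the replicate mean, cut at about 25% in these data; inconclusive = mean inhibition reaches that limit but some replicates miss it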;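 also: 0% = plate neutral control median and 100% = total signal loss; the record names both 10 and 1 µM as test concentration; the first replicate is given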
# Target sequence (P42568 whole entry, looked up): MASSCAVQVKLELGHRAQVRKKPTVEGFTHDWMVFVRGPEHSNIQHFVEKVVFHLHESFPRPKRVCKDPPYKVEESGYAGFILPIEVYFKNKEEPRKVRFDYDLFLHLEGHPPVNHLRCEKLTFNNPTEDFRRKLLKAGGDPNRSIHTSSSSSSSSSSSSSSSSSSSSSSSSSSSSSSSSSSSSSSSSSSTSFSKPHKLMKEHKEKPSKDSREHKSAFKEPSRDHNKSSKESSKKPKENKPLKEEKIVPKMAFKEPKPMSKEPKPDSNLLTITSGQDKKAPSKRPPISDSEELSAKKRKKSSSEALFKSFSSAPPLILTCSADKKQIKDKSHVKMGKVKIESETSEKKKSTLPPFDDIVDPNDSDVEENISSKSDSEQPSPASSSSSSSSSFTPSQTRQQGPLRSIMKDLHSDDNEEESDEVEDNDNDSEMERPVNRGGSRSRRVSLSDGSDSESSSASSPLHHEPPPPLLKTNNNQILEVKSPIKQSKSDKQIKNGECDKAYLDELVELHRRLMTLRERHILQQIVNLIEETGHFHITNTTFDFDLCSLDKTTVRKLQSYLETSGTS
# FGF22 binding – FGF22 (human) thermal shift binding | recombinant FGF22 thermal shift, SYPRO orange fluorescence; percent of sucrose octasulfate shift, DMSO zero | actives 1.5% (n = 340,000) | calls only at 9.99 µM | AID 651658 | Q9HCT0;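 active = melting point raised past a set limit in the mean and every replicate; inconclusive = no clear call; three in four hits are not shown here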
# UCH37 inh – blocks the human deubiquitinase UCH37. purified proteasome/UCH37, Ub-AMC cleavage fluorescence. actives 0.33% (n = 330,000). inhibition, % (test concentration not listed);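 active = mean of two replicates above 20%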;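 also: 0% = compound-free wells with enzyme and 100% = wells lacking proteasome; stock transfer was 100 nL into about 20 µL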
#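 Material: human UCH37 enzyme supplied as purified proteasome complex. Measure: % inhibition of Ub-AMC cleavage fluorescence. Medium: pH 7.4 Tris-HCl (50 mM) with ovalbumin, ATP-MgCl2, DTT. Times: 30 min preincubation with enzyme, 25 min cleavage at room temperature. Detection: AMC fluorescence intensity at 355/460 nm.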
# * = called active by the depositor; i = inactive; ? = inconclusive; . = not tested or not shown; & = joins results of further samples.
SMILES	UCH37 inh	AF4-AF9 inh	RanGTP-Impb inh	FGF22 binding	Ecoli growth	HNF4A DNA FP	Vif TR-FRET
COc1ccc2c(c1)CC[C@@H]1[C@@H]2CC[C@]2(C)[C@@H](C(=O)O)C[C@@H]12	0.4	0.6	-1.1	i	.	6.6	.
Cc1ccc(C(=O)NC(C#N)=C(Cl)Cl)cc1	2.5	-7.4	0.5	i	0.63	.	.
COc1ccc(CCNC(=O)C2CCN(C(=O)c3ccc(Cl)cc3)CC2)cc1	1.2	2.5	-2.3	.	0.69	-3.9	.
CCCN1CCN(CCCNC(=O)Cn2nc(-c3ccc(Cl)cc3)ccc2=O)CC1	1.0	.	0.0	.	0.69	4.3	9%
Cc1ccc(S(=O)(=O)N2CCOCC2)cc1NC(=O)CN1C(=O)NC2(CCCC2)C1=O	4.1	-3.2	.	i	0.71	3.5	-9%
C/C(CC(=O)NC12CC3CC(CC(C3)C1)C2)=N\NC(=O)c1cnccn1	.	-1.6	3.2	i	.	-0.8	21%
O=C(CCCc1nc2ccccc2s1)NCc1cccnc1	3.4	-0.6	6.0	i	0.65	1.3	-5%
CC1CCCC(C)N1C(=O)CSc1nnc(C2CCCCC2)o1 (centres undefined)	0.7	.	-3.8	.	0.67	-2.1	-1%
CCOc1ccc(N2C(=O)CC(NCc3ccc(F)cc3)C2=O)cc1 (centres undefined)	2.2	.	?	.	0.69	3.9	18%
Cc1ccc(C(=O)OCC(=O)c2ccc[nH]2)s1	0.6	-2.9	-0.8	i	0.62	2.0	.
Cc1ccc(NCc2nnc(SC(C)C(=O)N/N=C/c3ccc(C)o3)n2-c2ccccc2)cc1 (centres undefined)	.	.	?	.	.	1.5	2%
OC[C@@H]1CN(CCN2CCOCC2)C[C@H](n2cnc3c(NCc4ccc(F)cc4)ncnc32)O1	.	-2.1	.	i	.	0.4	.
Cc1ccc(N(CC(=O)NC(C)c2ccccc2)S(=O)(=O)c2c(C)n[nH]c2C)cc1 (centres undefined)	0.3	-0.6	1.9	i	0.69	-1.3	.
CCc1c(C)sc(NC(NC(C)=O)(C(=O)OC)C(F)(F)F)c1C#N (centres undefined)	3.0	4.4	-2.6	i	0.74	-2.8	.
Cc1[nH]n(-c2ccccc2)c(=O)c1/C=N/NC(=O)COc1ccccc1[N+](=O)[O-]	.	13	-0.8	i	.	0.0	-4%
O=C(O)c1c(NC(=O)N2CCOCC2)sc2c1CCCC2	3.1	-5.9	-3.6	i	0.66	-1.6	.
O=C(NC1CCCCC1)C(c1ccccc1)N1CCc2ccccc21 (centres undefined)	2.7	5.0	2.5	i	0.72	-0.3	4%
CC1CCN(S(=O)(=O)c2cn(CC(=O)N3CCN(C)CC3)c(=O)c3ccccc23)CC1	1.0	.	0.1	.	0.72	-1.3	4%
O=S(=O)(Nc1ccc(Cl)nn1)c1ccccc1	3.9	-1.1	-0.7	i	0.64	-1.3	3%
Cc1cccc(C)c1NC(=O)C(C1CC1)n1c(-c2ccc(=O)[nH]c2)nc2ccccc21 (centres undefined)	.	-0.3	.	i	.	2.2	.
O=C(CSc1nnc2scc(-c3ccccc3)n12)Nc1ccc2c(c1)OCCO2	2.0	?	-4.4	i	0.64	-0.5	2%
Clc1nc(-c2ccccc2)cc(-c2ccccc2)n1	-2.8	-2.8	-0.1	i	0.68	4.6	.
Cn1cnnc1Sc1cc(N2CCN(S(=O)(=O)c3ccc4ccccc4c3)CC2)ccc1[N+](=O)[O-]	1.9	.	-2.6	.	0.72	-1.4	.
COc1ccc(OC)c2c1sc(=NC(=O)C1CC1)n2C	2.8	-1.2	0.6	i	0.7	-0.5	-5%
Cc1ccnc(N2CCCC(C(=O)NCc3cccs3)C2)n1 (centres undefined)	-7.2	.	-4.5	.	0.72	-0.8	-6%
COc1ccccc1N1CCN(C(=O)CSc2nc3ncnc(N)c3[nH]2)CC1	2.6	.	-3.3	.	0.6	2.8	13%
Cc1ccc(C)n1CCN1CCN(C(=O)CSc2nc3ccccc3nc2N2CCOCC2)CC1	4.0	.	?	.	0.78	-0.4	-3%&-1%
CC(=O)N1CCc2c(sc(NC(=O)CCS(=O)(=O)c3ccc(C)cc3)c2C#N)C1	-2.7	-1.2	1.5	i	0.65	1.1	3%
O=C(NCCc1ccccc1F)C1CC(=O)N(c2ccc3c(c2)OCCO3)C1 (centres undefined)	.	-2.1	.	i	.	-0.7	2%
Cc1cc(/C=C2/SC(=S)N(c3cccc(Cl)c3)C2=O)c(C)n1-c1cccnc1	5.8	.	4.3	.	0.71	43*	-2%
CCCCNC(=O)COC(=O)CCC(=O)c1ccc(F)cc1	-1.0	.	-0.6	.	0.71	1.9	-2%
CC(=O)Nc1cc(C(=O)OCC(=O)c2ccc(Cl)cc2Cl)ccc1C	3.1	.	3.1	.	0.74	-1.1	-2%
COc1cc(C)c(-c2cc(C(=O)O)c(C)o2)cc1C(C)C	2.3	.	-3.3	.	0.73	-0.3	-2%
CC(C)CCN1C(=O)c2ccc(C(=O)NCC3CCCO3)cc2C1=O (centres undefined)	0.2	.	6.9	.	0.77	-2.1	-1%
CC(=O)Nc1ccc(OCC(O)Cn2ccnc2)cc1 (centres undefined)	2.4	0.8	1.3	i	0.7	3.5	0%
Cc1n[nH]c(C)c1CCC(=O)N/N=C/c1c(C)[nH]c2ccccc12	.	2.2	6.9	i	.	4.1	.
CCOC(=O)CC(=O)Nc1ncnc2c1C(c1ccccc1)c1c(ccc3ccccc13)O2 (centres undefined)	1.0	1.5	.	i	0.68	0.0	.
CCN(CC(=O)NCc1ccc(Cl)cc1)C(=O)CSc1ccc(F)cc1	3.8	-1.2	-3.0	i	0.65	4.0	6%
CCCc1cc(=O)[nH]c(SCC(=O)OCc2ccccc2)n1	1.7	.	0.8	.	0.7	0.7	16%
CCC(C)COC(c1ccccc1)(c1ccccc1)C(Oc1nc(C)cc(C)n1)C(=O)O (centres undefined)	2.8	5.5	?	i	0.68	-1.3	.
COc1ccc2[nH]c3c(=O)n(N)c(C)nc3c2c1	-438	.	12	.	0.7	1.2	.
OCCOc1cccc(CN2CCC(CO)(CCOc3ccccc3)CC2)c1	19	0.6	1.3	i	0.7	2.7	19%
CCOc1ccc(S(=O)(=O)N(C)c2ccc(OCC(=O)NC3=NCCS3)cc2)cc1	3.2	0.8	-2.3	.	0.68	-1.6	-6%
CC(NC(=O)Cc1ccc(NC2=NC3CS(=O)(=O)CC3S2)cc1)c1ccccc1 (centres undefined)	-0.4	14	7.1	i	0.7	-1.2	.
Cc1cn([C@H]2C[C@H](O)[C@@H](/C=C/C(=O)NCCc3ccc(S(N)(=O)=O)cc3)O2)c(=O)[nH]c1=O	.	2.0	.	i	.	0.5	.
CC1CCN(c2ncnc3nc[nH]c23)CC1	4.9	5.4	?	i	0.72	-0.1	-3%
O=C(Nc1cccnc1)Nc1ccc(Cl)cc1Cl	2.0	-0.9	.	i	0.65	1.9	7%
COCCNC(=O)[C@@]1(C)C=C[C@@H](Cc2ccccc2)N1C(=O)c1ccccc1	-1.0	-1.2	?	i	.	-1.0	.
Cn1c(N)nc2nc(CCc3ccccc3)c(=O)[nH]c2c1=O	i	-8.3	-0.2	i	0.68	-8.6	.
CC(C)C(NS(=O)(=O)c1cc(C(=O)O)ccc1Cl)C(=O)O (centres undefined)	-0.5	-0.3	-0.2	i	0.72	2.4	?

# Compounds listed so far containing a furan ring, fused or not:
SMILES	UCH37 inh	AF4-AF9 inh	RanGTP-Impb inh	FGF22 binding	Ecoli growth	HNF4A DNA FP	Vif TR-FRET
Cc1ccc(NCc2nnc(SC(C)C(=O)N/N=C/c3ccc(C)o3)n2-c2ccccc2)cc1 (centres undefined)	.	.	?	.	.	1.5	2%
COc1cc(C)c(-c2cc(C(=O)O)c(C)o2)cc1C(C)C	2.3	.	-3.3	.	0.73	-0.3	-2%

# Next section.
SMILES	UCH37 inh	AF4-AF9 inh	RanGTP-Impb inh	FGF22 binding	Ecoli growth	HNF4A DNA FP	Vif TR-FRET
COc1ccccc1OCC(=O)Nc1nc(-c2ccc(S(=O)(=O)N3CCOCC3)cc2)cs1	4.8	.	2.5	.	0.74	1.0	-10%
N#C/C(=N\Nc1ccc(Cl)cc1)C(=O)c1ccccc1	.	.	2.7	.	.	2.4	5%
COc1cc(C(=O)Nc2ccc3c(c2)OCCO3)c(-n2cnnn2)cc1OC	3.7	.	1.9	.	0.68	1.3	?
COc1ccccc1NC(=O)CN(c1ccccc1)S(=O)(=O)c1ccccc1	0.5	1.7	-0.1	i	0.65	0.7	16%
CCN(CC)c1ccc(/C=N/NC(=O)c2cccc(S(=O)(=O)Nc3ccccc3OC)c2)c(O)c1	.	3.2	7.6	i	.	18	.
NC(=O)COC(=O)C1CSC2(c3ccc(F)cc3)CCC(=O)N12 (centres undefined)	-1.9	-2.4	1.8	i	0.65	-4.4	.
CCc1ccc2c(CN3CCN(S(=O)(=O)c4ccc5c(c4)OCCO5)CC3)cc(=O)oc2c1	3.5	.	3.7	.	0.73	-0.7	-3%&-7%
Cc1cccc(C)c1NC(=O)COC(=O)C1Cc2ccccc2CN1C(=O)c1ccccc1 (centres undefined)	-0.8	.	2.3	.	0.67	-1.2	3%
O=C1CCCC2=C1Sc1ccc(Cl)cc1N2	2.3	-1.6	3.5	i	0.66	2.3	-5%
O=C1CN(C(=O)c2ccc(Cl)c(S(=O)(=O)N3CCc4ccccc43)c2)c2ccccc2N1	1.1	1.4	-5.7	i	0.68	2.1	-7%
CCN1C(=O)[C@H]2[C@@H](c3ccc(OC)cc3)N[C@]3(CCCN(Cc4ccc(Br)cc4)C3=O)[C@H]2C1=O	.	-1.3	.	i	.	1.1	1%
Cc1ccc(NC(=O)CSc2nc3c(c(=O)[nH]2)CCCC3)cc1C	3.5	-2.0	0.4	i	0.7	2.5	.
CCOc1ccc(OCC)c(NC(=O)CN(c2ccc(C)cc2)S(=O)(=O)c2c(C)noc2C)c1	0.0	.	-1.2	.	0.76	0.7	0%
CCOc1c(Br)cc(C(=O)Nc2cccc(S(=O)(=O)N3CCOCC3)c2)cc1OC	.	-0.4	.	i	.	-2.5	-3%
O=C(NCc1ccc(F)cc1)C(c1cccs1)N(C(=O)c1csnn1)C1CC1 (centres undefined)	-1.8	.	-3.3	.	0.69	-2.0	-5%
O=C(O)c1ccc(N=c2oc3cc(O)ccc3cc2C(=O)NCc2ccccc2)cc1	-30	-1.7	169*	i	0.68	10	8%
Cc1ccccc1C(=O)N1CCC(C(=O)N(CC(C)C)c2c(N)n(CC(C)C)c(=O)[nH]c2=O)CC1	2.0	5.8	.	i	0.69	-1.4	?
CCn1c(SCC(=O)NNC(=O)Cc2ccccc2)nnc1-c1ccncc1	0.9	-0.5	0.8	i	0.66	1.8	.
O=C(NC1CCCCC1)c1cccc2c1C(=O)c1ccc(-c3ccc(OC(F)(F)F)cc3)cc1S2(=O)=O	1.8	-5.9	.	i	0.65	-1.7	.
Clc1ccc(-c2ccc(CN3CCCCC3)o2)cc1	-0.3	7.8	3.4	i	0.63	3.7	.
C=CCn1c2ccccc2c(=O)c2cc(C#CC3(O)CCCCC3)ccc21	-21	-6.2	161*	i	0.67	4.0	.

# Some of the compounds tested. The share of hits here may be higher or lower than overall.
